Bioassay records: PubChem, Broad Institute
FGF22 binding = binders of recombinant human FGF22 by thermal shift; SYPRO orange fluorescence; percent of sucrose octasulfate shift, DMSO zero; Q9HCT0; calls only at 9.99 µM; AID 651658; 340,000 tested, 1.5% active;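 active = melting point raised past a set limit in the mean and every replicate; three in four hits are not shown here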
Target sequence (Q9HCT0 whole entry, looked up): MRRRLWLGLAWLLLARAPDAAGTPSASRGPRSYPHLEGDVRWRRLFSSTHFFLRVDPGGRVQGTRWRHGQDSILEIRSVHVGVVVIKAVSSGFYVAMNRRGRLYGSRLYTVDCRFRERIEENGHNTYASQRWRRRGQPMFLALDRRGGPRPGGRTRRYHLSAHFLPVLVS
Calls only; i = inactive; + = active, no number. An excerpt. The share of hits here may be higher or lower than overall.

FGF22 binding	SMILES
i	CCS(=O)(=O)Nc1ccc2c(c1)C(=O)N(C)C[C@@H](OC)[C@@H](C)CN(Cc1nccs1)[C@@H](C)CO2
i	CO[C@H]1CN(C)C(=O)c2cc(NC(=O)c3ccccc3F)ccc2OC[C@@H](C)NC[C@@H]1C
i	O=C(Cc1ccccc1)N1CC[C@@H]2[C@@H](CO)Nc3ccc(-c4ccccc4F)cc3[C@@H]21
i	CCC(=O)N1C[C@@H](O)COC[C@@H]2O[C@@H](CC(=O)NCc3ccccc3Cl)CC[C@H]21
i	C/C=C/c1ccc2c(c1)O[C@H](CN(C)Cc1cncnc1)[C@H](C)CN([C@@H](C)CO)S2(=O)=O
i	O=C([C@H]1N[C@H]2c3ccc(-c4ccccc4F)c(=O)n3C[C@H]2[C@@H]1CO)N1CCc2ccccc2C1
i	COc1ccc(NC(=O)Nc2ccc3c(c2)C(=O)N([C@@H](C)CO)C[C@@H](C)[C@H](CN(C)Cc2ccc(C(=O)O)cc2)OCCCC[C@@H](C)O3)cc1
i	CCCN1C(=O)c2[nH]nc(-c3ccccc3)c2C1c1ccc(C)cc1 (stereo not drawn)
i	Cc1cccc(S(=O)(=O)N[C@H]2CC[C@@H](CCNS(=O)(=O)c3ccccc3F)O[C@H]2CO)c1
i	CCc1cnc(N2[C@@H](C#N)[C@H](c3ccc(C4=CCCCC4)cc3)[C@@H]2CO)s1
i	COc1ccc(CN(C)C[C@@H]2Oc3c(NC(=O)Nc4ccc5c(c4)OCO5)cccc3C(=O)N([C@@H](C)CO)C[C@H]2C)cc1
i	COc1cccc(CNC(=O)[C@H]2CCCN2C(=O)[C@H]2CCCN2C(=O)c2ccc(F)cc2)c1
i	C[C@H](CO)N1C[C@H](C)[C@@H](CN(C)C(=O)CC2CC2)Oc2ncc(-c3ccc(C#N)cc3)cc2C1=O
i	C[C@@H]1CN([C@@H](C)CO)C(=O)c2cc(NC(=O)Nc3ccc(C(F)(F)F)cc3)ccc2O[C@@H](C)CCCCO[C@@H]1CN(C)C(=O)CCCN(C)C
i	C[C@H](CO)N1C[C@H](C)[C@H](CN(C)C(=O)c2ccc3c(c2)OCO3)Oc2ncc(C3=CCCCC3)cc2C1=O
i	CCC(=O)NC[C@@H]1[C@H](c2ccccc2)[C@@H](CO)N1C(=O)C1CCC1
i	COc1ccccc1NC(=O)N(C)C[C@H]1Oc2ncc(C#CCC(C)C)cc2C(=O)N([C@H](C)CO)C[C@@H]1C
i	COc1ccc(S(=O)(=O)N(C)C[C@H]2Oc3ccc(NS(=O)(=O)c4ccc(Cl)cc4)cc3C(=O)N([C@@H](C)CO)C[C@@H]2C)cc1
i	C/C=C/c1ccc2c(c1)O[C@H](CN(C)Cc1ccc(C(=O)O)cc1)[C@H](C)CN([C@@H](C)CO)S2(=O)=O
i	CCCNC(=O)[C@H]1[C@H](CO)[C@H]2Cn3c(ccc(C4=CCCC4)c3=O)[C@H]2N1C(=O)CC
i	C[C@@H]1CN([C@@H](C)CO)C(=O)c2cc(NS(=O)(=O)c3ccc(F)cc3)ccc2O[C@H]1CN(C)Cc1ccc(C(=O)Nc2ccccc2N)cc1
i	O=C(C[C@H]1C=C[C@H](NC(=O)CCN2CCCCC2)[C@@H](CO)O1)Nc1ccc(-c2ccccc2)cc1
i	C[C@@H]1CN([C@@H](C)CO)C(=O)c2cc(/C=C/c3ccccc3)cnc2O[C@@H]1CN(C)C(=O)Cc1cccnc1
i	C[C@H]1CCCCO[C@@H](CN(C)C)[C@@H](C)CN([C@@H](C)CO)C(=O)c2cc(NC(=O)Cc3ccccc3)ccc2O1
i	COc1ccc(S(=O)(=O)Nc2ccc3c(c2)C(=O)N([C@H](C)CO)C[C@@H](C)[C@H](CN(C)Cc2ccc(C(F)(F)F)cc2)OCCCC[C@H](C)O3)cc1
i	C[C@H]1CN([C@@H](C)CO)C(=O)c2cccc(NC(=O)Nc3ccc4c(c3)OCO4)c2O[C@@H]1CN(C)C
i	C[C@@H]1CN([C@H](C)CO)C(=O)c2cc(NS(C)(=O)=O)ccc2O[C@H]1CN(C)CC1CC1
i	Cc1ccc(S(=O)(=O)N(C)C[C@H]2Oc3ccc(NC(=O)C4CCCCC4)cc3CC(=O)N([C@H](C)CO)C[C@H]2C)cc1
i	COc1ccc(NC(=O)Nc2ccc3c(c2)CC(=O)N([C@@H](C)CO)C[C@@H](C)[C@@H](CN(C)C(=O)Nc2c(C)noc2C)O3)cc1
i	CN1[C@H](C(=O)NCc2ccccn2)[C@@H](CO)[C@@H]2Cn3c(ccc(-c4cccc(F)c4)c3=O)[C@@H]21
i	O=C(C[C@@H]1CC[C@@H]2[C@H](COC[C@H](O)CN2CC2CC2)O1)NCc1ccc(Cl)cc1
i	C[C@@H]1CCCCO[C@@H](CN(C)Cc2ccc3c(c2)OCO3)[C@@H](C)CN([C@@H](C)CO)C(=O)c2cc(NC(=O)c3ccccc3)ccc2O1
i	C[C@@H]1CN([C@H](C)CO)C(=O)c2cc(NC(=O)Cc3ccccc3)ccc2O[C@@H]1CN(C)S(=O)(=O)c1ccccc1
i	O=C(Nc1ccccc1F)N1C[C@H]2[C@@H](c3ccccc31)[C@@H](CO)N2C(=O)Cc1cccnc1
i	C[C@H]1CN([C@@H](C)CO)S(=O)(=O)c2ccc(C3=CCCCC3)cc2O[C@@H]1CN(C)C(=O)c1ccccc1
i	COCC(=O)N1CCCCN2[C@H](C1)[C@H](c1ccc(-c3cccc(C)c3)cc1)[C@@H]2CO
i	CN(C)CC(=O)Nc1ccc2c(c1)[C@H]1C[C@@H](CC(=O)NCc3ccccc3)O[C@@H](CO)[C@H]1O2
i	COc1cccc(OCCCN2CCC(C(O)(c3ccccc3)c3ccccc3)CC2)c1
i	O=C(C[C@H]1CC[C@@H](NC(=O)C2CCC2)[C@@H](CO)O1)NCC1CC1
i	CC(C)C#Cc1ccc2c(c1)O[C@H](CN(C)Cc1ccncc1)[C@@H](C)CN([C@H](C)CO)S2(=O)=O
i	CCCNC(=O)Nc1ccc2c(c1)C(=O)N(C)C[C@@H](OC)[C@H](C)CN(Cc1cncnc1)[C@H](C)CO2
i	C[C@@H]1CN([C@H](C)CO)C(=O)c2cc(C3=CCCC3)cnc2O[C@H]1CN(C)C
i	CN1C(=O)c2cc(NC(=O)c3cccc(Cl)c3)ccc2OC[C@@H]2O[C@H](CC(=O)NC3CCCCC3)CC[C@H]21
i	CN1c2ccc(-c3ccccc3)cc2[C@H]2[C@H](CCN2C(=O)c2ccccc2F)[C@H]1CO
i	COc1ccc2c3c([nH]c2c1)[C@H](CO)N(S(=O)(=O)c1cn(C)cn1)CC31CCN(CC2CC2)CC1
i	C[C@@H]1CN([C@H](C)CO)C(=O)c2cccc(NC(=O)Nc3cccc4ccccc34)c2O[C@@H]1CN(C)Cc1ccc(C(=O)O)cc1
i	O=C(NCC[C@@H]1CC[C@@H](NS(=O)(=O)c2ccc(F)cc2)[C@@H](CO)O1)c1ccc2c(c1)OCO2
i	COc1ccc(CN(C)C[C@@H]2Oc3ccc(NC(=O)Nc4ccc(C(F)(F)F)cc4)cc3C(=O)N([C@H](C)CO)C[C@@H]2C)cc1
i	CN(C)CC(=O)N1CC2(C1)[C@H](c1ccccc1)[C@H](CO)N2S(C)(=O)=O
i	C[C@H](CO)N1C[C@H](C)[C@@H](CN(C)C(=O)c2ccccc2F)Oc2ncc(C#Cc3ccccc3)cc2C1=O
i	C[C@H]1CCCCO[C@H](CN(C)C(=O)c2ccccc2)[C@@H](C)CN([C@@H](C)CO)C(=O)c2cc(NC(=O)NC3CCCCC3)ccc2O1
i	O=C(C[C@H]1C[C@H]2c3cc(NC(=O)Nc4ccccc4)ccc3O[C@H]2[C@H](CO)O1)NCCN1CCCCC1
i	COc1ccc(C#Cc2ccc3c(c2)[C@]2(C(=O)N3)[C@H](C(=O)N3CCN(c4ncccn4)CC3)[C@H]3C(=O)O[C@H](c4ccccc4)[C@H](c4ccccc4)N3[C@@H]2c2ccc(OCCO)cc2)cc1
i	COc1ccc(NC(=O)N(C)C[C@@H]2OCCCC[C@@H](C)Oc3ccc(NC(=O)c4ccncc4)cc3C(=O)N([C@H](C)CO)C[C@H]2C)cc1
i	CCCC(=O)Nc1ccc2c(c1)OC[C@@H](C)N(CC1CCOCC1)C[C@H](C)[C@H](OC)CN(C)C2=O
i	O=C(C[C@H]1C=C[C@H](NC(=O)Nc2ccc(F)cc2)[C@@H](CO)O1)NCc1ccccn1

New compounds follow.
FGF22 binding	SMILES
i	C/C=C/c1ccc([C@@H]2[C@H](CO)N(C(=O)CC3CC3)C23CN(S(C)(=O)=O)C3)cc1
i	O=C(C[C@@H]1CC[C@@H](NC(=O)C2CCOCC2)[C@@H](CO)O1)NCC1CCCCC1
i	CO[C@@H](CN(C)C(=O)c1ccc2c(c1)OCO2)[C@H](C)CN([C@@H](C)CO)S(=O)(=O)c1ccccc1
i	CN(C(=O)CSc1ncnc2c(-c3cccs3)nsc12)C1CCCCC1
i	C[C@H]1CCCCO[C@H](CN(C)Cc2ccc(C(=O)O)cc2)[C@@H](C)CN([C@@H](C)CO)C(=O)c2cc(NS(C)(=O)=O)ccc2O1
i	C[C@H]1CN([C@@H](C)CO)C(=O)c2cc(NS(C)(=O)=O)ccc2O[C@H]1CN(C)C
i	COc1ccc(S(=O)(=O)N[C@@H]2C=C[C@H](CC(=O)NCCc3ccncc3)O[C@@H]2CO)cc1
i	C[C@H]1CN([C@@H](C)CO)S(=O)(=O)c2ccc(-c3ccccc3)cc2O[C@@H]1CN(C)C(=O)c1ccc2c(c1)OCO2
i	C[C@@H]1CN([C@H](C)CO)C(=O)c2cc(NC(=O)Cn3cnnn3)ccc2O[C@@H]1CN(C)Cc1ccccc1
i	C[C@H](CO)N1C[C@H](C)[C@H](CN(C)S(=O)(=O)c2ccc(F)cc2)Oc2ccc(NC(=O)CCCCCC(=O)Nc3ccccc3N)cc2C1=O
i	C[C@@H]1CN([C@H](C)CO)C(=O)c2cc(NS(=O)(=O)c3ccccc3)ccc2O[C@@H](C)CCCCO[C@@H]1CN(C)C(=O)CCCN(C)C
i	CC(=O)N1[C@H](CN(C)C(=O)CN2CCOCC2)[C@@H](c2ccccc2)[C@@H]1CO
+	O=C(c1ccccc1)N1CC2(C1)[C@H](c1ccccc1)[C@H](CO)N2Cc1cc(F)ccc1F
i	C[C@@H]1CN([C@@H](C)CO)C(=O)c2cc(NS(=O)(=O)c3ccccc3)ccc2O[C@@H]1CN(C)CC1CCCCC1
i	C[C@@H]1CN([C@H](C)CO)C(=O)c2c(c3ccccc3n2C)-c2ccccc2CO[C@@H]1CN(C)S(=O)(=O)c1ccc(C#N)cc1
i	CCc1c(-c2ccc(OC)c(OC)c2)ncn1CCc1ccccc1OC
i	C[C@@H]1CN([C@@H](C)CO)C(=O)c2cc(NC(=O)Nc3ccc(C(F)(F)F)cc3)ccc2O[C@@H]1CN(C)C(=O)Nc1ccc2c(c1)OCO2
i	C[C@H](CO)N1C[C@H](C)[C@H](CN(C)C(=O)Nc2ccc3c(c2)OCO3)Oc2ncc(-c3cc4ccccc4o3)cc2C1=O
i	COc1ccccc1CNC(=O)C[C@H]1CC[C@@H](NC(=O)CN(C)C)[C@H](CO)O1
i	O=C(NCc1ccc(F)cc1)[C@H]1[C@H](CO)[C@H]2Cn3c(cccc3=O)[C@H]2N1Cc1ccccn1
i	O=C(c1cccc(F)c1)N1CCCCN2[C@H](CO)[C@H](c3ccc(-c4cccnc4)cc3)[C@H]2C1
i	C[C@@H]1CN([C@H](C)CO)C(=O)c2cccc(NS(=O)(=O)c3ccc(Cl)cc3)c2O[C@H]1CN(C)Cc1ccc(C(=O)O)cc1
i	CO[C@@H]1CN(C)C(=O)c2ccc(NC(=O)C3CC3)cc2OC[C@@H](C)N(C(=O)CN2CCOCC2)C[C@H]1C
i	CCC(=O)N(C)C[C@H]1Oc2cc(C#Cc3ccccn3)ccc2S(=O)(=O)N([C@@H](C)CO)C[C@H]1C

Ten successive records already listed:
FGF22 binding	SMILES
i	CCS(=O)(=O)Nc1ccc2c(c1)C(=O)N(C)C[C@@H](OC)[C@@H](C)CN(Cc1nccs1)[C@@H](C)CO2
i	CO[C@H]1CN(C)C(=O)c2cc(NC(=O)c3ccccc3F)ccc2OC[C@@H](C)NC[C@@H]1C
i	O=C(Cc1ccccc1)N1CC[C@@H]2[C@@H](CO)Nc3ccc(-c4ccccc4F)cc3[C@@H]21
i	CCC(=O)N1C[C@@H](O)COC[C@@H]2O[C@@H](CC(=O)NCc3ccccc3Cl)CC[C@H]21
i	C/C=C/c1ccc2c(c1)O[C@H](CN(C)Cc1cncnc1)[C@H](C)CN([C@@H](C)CO)S2(=O)=O
i	O=C([C@H]1N[C@H]2c3ccc(-c4ccccc4F)c(=O)n3C[C@H]2[C@@H]1CO)N1CCc2ccccc2C1
i	COc1ccc(NC(=O)Nc2ccc3c(c2)C(=O)N([C@@H](C)CO)C[C@@H](C)[C@H](CN(C)Cc2ccc(C(=O)O)cc2)OCCCC[C@@H](C)O3)cc1
i	CCCN1C(=O)c2[nH]nc(-c3ccccc3)c2C1c1ccc(C)cc1 (stereo not drawn)
i	Cc1cccc(S(=O)(=O)N[C@H]2CC[C@@H](CCNS(=O)(=O)c3ccccc3F)O[C@H]2CO)c1
i	CCc1cnc(N2[C@@H](C#N)[C@H](c3ccc(C4=CCCCC4)cc3)[C@@H]2CO)s1

Next results
FGF22 binding	SMILES
i	C[C@@H]1CCCCO[C@@H](CN(C)C)[C@H](C)CN([C@H](C)CO)C(=O)c2cc(NS(=O)(=O)c3cccs3)ccc2O1
i	O=C(C[C@@H]1C[C@@H]2c3cc(NC(=O)CC4CC4)ccc3O[C@@H]2[C@@H](CO)O1)NCc1cc(F)ccc1F
i	CCC(=O)N1[C@@H](CO)[C@@H](c2ccccc2)[C@@H]1CN(C(C)C)S(C)(=O)=O
i	CO[C@H]1CN(C)C(=O)c2cc(NC(=O)C3CCC3)ccc2OC[C@H](C)NC[C@H]1C
i	C[C@H](CO)N1C[C@H](C)[C@H](CN(C)Cc2ccc(Oc3ccccc3)cc2)Oc2ccc(NS(=O)(=O)c3cn(C)cn3)cc2C1=O
